NPYLR7 ag = activates Aedes aegypti NPYLR7 receptor; activation, % at 10 µM; actives 0.15% (n = 270,000); HEK293T NPYLR7/Galpha15, GCaMP6s calcium fluorescence; in the data active = activation above about 40%;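 note: 0% = vehicle and 100% = reference agonist at the receptor; some compounds past the cut are filed as inactive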
NPYLR7 ag max-min = recorded beside NPYLR7 ag, whose call it bears; activation, %; measured here: Max-Min RFU normalised activation; some inactives read as strong as hits;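 span of the calcium signal over five minutes; 0% = vehicle and 100% = native peptide agonist; compound fluorescence can raise it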
* marks the source's active call; other numbers are inactive results.

SMILES	NPYLR7 ag	NPYLR7 ag max-min
CCOc1ccc(CN(Cc2nc(C(=O)N3CCCC3)co2)C(C)CC)cc1 (configuration not stated)	6.7	1.3
CC(=O)N1CCN(c2cc(C(C)(C)C)nc(SCc3ccc(C(=O)O)cc3)n2)CC1	-13.3	-6.1
CC1CN(C=CC(=O)C(F)(F)F)CC(C)O1 (configuration not stated)	1.2	-0.7
C=C(C)COc1cccc(C(=O)NCc2cn3nc(C)sc3n2)c1	-1.2	-7.0
O=c1[nH]c(CN2CCCC2)nc2scc(-c3ccccc3F)c12	0.5	10.6
O=C(COC(=O)C=Cc1ccc(I)o1)NC1CCCCCCC1	-1.4	-3.0
CC(C)(C)c1ccc(C(=O)NCC(=O)N2CCc3c(cccc3N3CCOC3=O)C2)cc1	2.7	-2.5
COc1ccc(NC(=O)CSc2nnc(SC)s2)cc1OC	14.2	5.7
O=C(O)CN1C(=O)/C(=C\c2ccc(-c3ccc(Cl)c(Cl)c3)o2)SC1=S	-1.6	-8.0
CCN(CC)C(=O)Cn1cnc2c(nnn2-c2cccc(F)c2)c1=O	-6.4	-8.4
CC(=O)Cn1c(=O)c2c(nc3n(CCN4CCOCC4)c(C)c(C)n23)n(C)c1=O	4.2	-3.3
COCCN(CC1CCN(Cc2ccccc2OC)CC1)C(=O)C1=CCCC1	14.9	3.6
O=C(Cn1nc(C(F)F)cc1C(F)F)N/N=C\c1cccc(I)c1	-1.1	-4.4
COC(=O)c1ccc(C(=O)OC)c(S(=O)(=O)NCc2cccc(C)c2)c1	2.6	12.7
O=C(c1ccc2oc(CCc3ccccc3)nc2c1)N1CCN(CC2CC2)CC1	8.5	4.8
N#CCCCSc1nc2cc(S(=O)(=O)N3CCOCC3)ccc2n1CC1CCCO1 (configuration not stated)	6.7	4.2
O=C(COc1ccc(Cl)cc1)NCC(O)c1ccc(Cl)cc1 (configuration not stated)	-7.0	-7.8
O=C(CCC1CCCCC1)N1CCN(c2ccc(Nc3ccncc3)nn2)CC1	11.1	2.8
COc1cc2sc(C(=O)Nc3c(C)cccc3C)c(Cl)c2cc1OC	6.7	4.5
CC1Oc2ccc(NC(C)c3nc(C(C)C)no3)cc2NC1=O (configuration not stated)	1.4	-1.6

The closing 4 compounds of the part above open the next one.
SMILES	NPYLR7 ag	NPYLR7 ag max-min
O=C(COc1ccc(Cl)cc1)NCC(O)c1ccc(Cl)cc1 (configuration not stated)	-7.0	-7.8
O=C(CCC1CCCCC1)N1CCN(c2ccc(Nc3ccncc3)nn2)CC1	11.1	2.8
COc1cc2sc(C(=O)Nc3c(C)cccc3C)c(Cl)c2cc1OC	6.7	4.5
CC1Oc2ccc(NC(C)c3nc(C(C)C)no3)cc2NC1=O (configuration not stated)	1.4	-1.6
O=C(c1ccc(F)cc1Br)N1CCN(S(=O)(=O)c2ccccc2)CC1	4.6	2.8
CCc1nc2n(n1)C(=O)C(C(c1ccccc1F)N1CCCCC1)S2 (configuration not stated)	-1.5	40.3
CC(NC(=O)c1ccc2c(c1)OCO2)c1ccc2c(c1)CCCC2 (configuration not stated)	15.2	5.2
Cc1nonc1CC(=O)N1CCCC(C(=O)c2ccc(Oc3ccccc3)cc2)C1 (configuration not stated)	17.5	4.3
CN(CC1(CO)CCCC1)c1nccc(N2CCCC(O)C2)n1 (configuration not stated)	-6.9	-11.7
Cc1ccc(Cl)cc1N1CCN(Cc2nc(C3CC3)no2)CC1	1.7	1.0
Cc1ccccc1COc1cccc(CC(=O)NCC#N)c1	1.4	1.0
CCOc1ccc2nc(N(Cc3cccnc3)C(=O)c3cccs3)sc2c1	-2.2	-2.6
Cc1cc(N2CCN(c3ccccc3F)CC2)nc(SCc2ccc(C(=O)NCc3cccnc3)o2)n1	-4.6	-2.4
CC1(C)NC(=O)N(CCn2nnc(-c3ccc(C(N)=O)cc3)n2)C1=O	0.5	-0.7
Cn1c2c(c(=O)n(C)c1=O)C1(NC(=O)N2)C(=O)Nc2ccccc21 (configuration not stated)	-2.1	-6.4
COc1ccccc1NC(=O)c1c(-c2ccccc2Cl)noc1C	0.8	-6.0
CCCCCCCCCC(=O)N(CCOC)Cc1cccn1Cc1cccc(C)c1	-3.7	0.0
Cc1c(C#N)oc2ccccc12	2.8	0.9
CC(C)(C)C(=O)CN1C(=O)C2(OCCO2)c2ccccc21	4.4	2.6
CCn1c2ccccc2c2cc(CN(Cc3ccco3)S(=O)(=O)c3ccccc3S(C)(=O)=O)ccc21	-8.8	-16.3
CC(C)N(Cc1ccccc1)CN1C(=O)NC2(CCCCCC2)C1=O	7.5	13.0
CN(CCCNC(=O)N1CCC2(CCCC2)C1)C(=O)C1CCC1	5.0	3.5
CCCOCC(=O)N1CCC(N2CCCC(C(=O)N3CCN(C)CC3)C2)CC1 (configuration not stated)	7.2	4.8
Cc1ccsc1CN(Cc1ccc2c(c1)OCO2)C(=O)CN(CC1CCCO1)C(=O)C1CCCC1 (configuration not stated)	-3.4	3.5

Entries of single compounds, looked up by structure. Values in the order: NPYLR7 ag, NPYLR7 ag max-min
Listed for CC(C)(C)C(=O)CN1C(=O)C2(OCCO2)c2ccccc21 : 4.4, 2.6
Listed for CC(C)N(Cc1ccccc1)CN1C(=O)NC2(CCCCCC2)C1=O : 7.5, 13.0

Three structures out of the list, ordered by number of heavy atoms, highest first.
SMILES	NPYLR7 ag	NPYLR7 ag max-min
CCn1c2ccccc2c2cc(CN(Cc3ccco3)S(=O)(=O)c3ccccc3S(C)(=O)=O)ccc21	-8.8	-16.3
COc1ccccc1NC(=O)c1c(-c2ccccc2Cl)noc1C	0.8	-6.0
CN(CCCNC(=O)N1CCC2(CCCC2)C1)C(=O)C1CCC1	5.0	3.5

The main list resumes, starting three compounds before the break.
SMILES	NPYLR7 ag	NPYLR7 ag max-min
CN(CCCNC(=O)N1CCC2(CCCC2)C1)C(=O)C1CCC1	5.0	3.5
CCCOCC(=O)N1CCC(N2CCCC(C(=O)N3CCN(C)CC3)C2)CC1 (configuration not stated)	7.2	4.8
Cc1ccsc1CN(Cc1ccc2c(c1)OCO2)C(=O)CN(CC1CCCO1)C(=O)C1CCCC1 (configuration not stated)	-3.4	3.5
Cc1ccc(-c2nnc(SCc3ccc(C#N)cc3)o2)cc1C	7.1	9.0
N#CC(=Cc1ccsc1)c1nnc(N2CCOCC2)n1-c1ccccc1	-4.5	3.3
COc1cc(C)ccc1-n1c(CCC(=O)NCc2ccco2)cc2c1-c1ccccc1OC2	-0.3	-0.5
CN1CCN(Cc2c(O)ccc3c(=O)c(-c4ccccc4)coc23)CC1	2.9	0.4
CCn1c(=O)cc(N2CCC(C)CC2)[nH]c1=O	0.6	6.5
C[N+]1(C2CCCSc3ccccc32)CCN(c2ccccc2)CC1 (configuration not stated)	3.9	0.7
CC(=O)N1CCc2cc(NC(=O)C3CCN(C(=O)C=Cc4ccccc4)CC3)ccc21	2.3	-0.4
COc1ccccc1-n1c(SCc2ccc(C(=O)NCc3ccncc3)cc2)nnc1-c1ccco1	7.5	14.2
Cc1cccc(NC(=O)CCC2CCN(C(=O)C3CC34CCCCC4)CC2)c1 (configuration not stated)	5.9	2.3
O=C(CCc1ccncc1)N1CCCC(CCc2ccc(F)c(F)c2)C1 (configuration not stated)	5.5	5.9
CN(C)c1ccc(C2=NOC(CN(Cc3cccc(F)c3)C(=O)c3ccco3)C2)cc1 (configuration not stated)	0.4	6.7
COCCN(CCC#N)C(=O)c1oc2c(C)ccc(C)c2c1C	8.7	4.6
COc1ccc(Oc2nc(N3CCN(C)CC3)nc3c2CN(Cc2cccs2)CC3)cc1	5.2	4.4
NC(=O)C1Cc2ccccc2CN1Cc1ncc(-c2ccccc2)o1 (configuration not stated)	3.4	-1.2
CNc1cccc(-c2cccc(NS(C)(=O)=O)c2)n1	4.4	2.9
Cc1cn2c(/C=C3/SC(=NC4CCCC4)NC3=O)c(C)nc2s1	14.2	10.7
Cc1c(NC(=O)OCCOc2nc(N(C)C)nc(N(C)C)n2)sc(=S)n1C	2.7	-1.5
CCC(=O)Nc1ccc(Nc2nc(C)cc(N3CCCCC3)n2)cc1	5.2	2.1
Cc1nc(CNC(=O)C(=O)N2CCCc3cc(Cl)ccc32)cs1	5.9	3.8
Cn1nc(C(=O)O)cc1C(F)(F)F	5.6	3.7
CCn1c(O)c(C2=c3cc(Br)ccc3=NC2=O)sc1=S	-10.3	-13.3
CCOc1cc(C)c(C)cc1S(=O)(=O)Nc1ccc(C)cc1	8.1	7.8
Cc1ccc(CN2CCC(CNC(=O)C3(N)CCCC3)C2)cc1C (configuration not stated)	-0.8	-1.2
O=C(CSc1ccnc(=O)[nH]1)NCc1ccccc1	3.8	3.3
CSc1ncccc1C(=O)N1CCOC(Cc2ccc(F)cc2)C1 (configuration not stated)	9.0	8.3
CCCCn1c(=O)[nH]c(=O)c2c1ncn2CCC(C)C	0.4	-2.3
CC1C=CCC2C(=O)N(c3cc([N+](=O)[O-])ccc3F)C(=O)C12 (configuration not stated)	0.5	-6.0
COc1ccc(-c2cc3ccc4c(c3oc2=O)CN(Cc2ccco2)CO4)cc1OC	-3.4	-10.2
C=CCOC(=O)COc1cc2c(-c3cc4cccc(OC)c4o3)cc(=O)oc2cc1C	-2.3	-6.5
CN(C)C=Nc1sc2c(c1C(N)=O)CCCC2	6.8	5.5
Cc1c[nH]c(Cn2cnc(-c3ccccc3)c2-c2cnn(C)c2)c(C)c1=O	2.6	-0.4
CCCCCCCCCCCCCC(=O)N1CCN(C(=O)c2cc(-c3ccc(F)cc3)n(-c3ccccc3)c2C)CC1	20.8	18.2
COc1cc(C(=O)N2CCCC(Nc3ccc(F)c(F)c3)C2)ccc1C (configuration not stated)	3.3	1.8
O=C1CSC(c2ccccc2)N1Nc1nc(N2CCOCC2)nc(N2CCOCC2)n1 (configuration not stated)	-4.4	-10.1
CCOC(=O)c1cc(-c2cccc(NC(=O)c3cccnc3Cl)c2)n(-c2cccc(F)c2)n1	20.4	10.6
C#CCn1c(=NC(=O)c2cccc(OC)c2OC)sc2c(OC)ccc(OC)c21	-16.7	-8.1
CCCCc1ccc(S(=O)(=O)c2cnc(SCC(N)=O)[nH]c2=O)cc1	-3.2	-8.1
NC(=O)c1cccnc1	-2.6	-2.3
NC(=O)c1cc(-c2csc(N3CCCC3)n2)ccc1O	4.6	3.3
CCOC(=O)Nc1cccc(C(=O)NCCc2cccc(F)c2)c1	-4.1	-9.3
CC(NC(=O)CCc1ccc(F)cc1)c1cccc(C#N)c1 (configuration not stated)	1.6	-0.3
Cc1cc(C2CCCN2S(=O)(=O)CC23CCC(CC2=O)C3(C)C)no1 (configuration not stated)	1.1	-0.7
CCCN1C(=O)COCc2cc(-c3ccncc3)ccc21	-6.0	-5.8
CN(C)S(=O)(=O)c1cc(C(=O)NCc2ccc(N3CCCC3)nc2)ccc1Cl	-3.1	-0.9
COCC1CCN(C(=O)CCCn2nnnc2CN2CCC(C)CC2)C1 (configuration not stated)	1.8	0.5
CC(C)Oc1cnn(-c2ccc(Cl)cc2)c(=O)c1Nc1cccc(C(=O)NCC2CCCO2)c1 (configuration not stated)	2.1	2.0
CCN(Cc1ccncc1)C(=O)CCn1c(C)cc2ccccc21	18.6	3.2
CCCN(Cc1cccnc1)C(=O)c1ccc(OC)c(Cl)c1	31.2	20.9
Cc1[nH]cnc1CN1CCc2[nH]cnc2C1c1ccc(F)cc1Cl (configuration not stated)	-1.7	-8.0
COc1cccc(NC(=O)CCC2CCN(C(=O)C(OC)c3ccccc3)CC2)c1 (configuration not stated)	-4.0	-6.9

Other compounds follow:
SMILES	NPYLR7 ag	NPYLR7 ag max-min
CCCNC(=O)CSc1nc(Cl)cc(N2CCN(C(=O)Nc3cccc(Cl)c3Cl)C(C)C2)n1 (configuration not stated)	-5.5	3.5
CCCn1c(Cc2ccc(OC)c(OC)c2)nc2ccccc21	-5.7	-11.4
COCCN(CC(=O)N(Cc1ccc2c(c1)OCO2)Cc1sccc1C)C(=O)c1ccccc1F	-5.6	5.6
O=C1c2ccccc2C(=O)N1Cc1nc(-c2cccc(Cl)c2)no1	11.0	3.1
CCOC(=O)c1cn(CC(=O)CC)nc1C(F)(F)F	10.6	7.0

An excerpt; the hit share may differ from the screen's.
